Screening data deposited in PubChem by several laboratories.
MT1-MMP reporter = inhibitors of MT1-MMP promoter transcription, cell-based, luciferase reporter, luminescence (AID 618); MT1-MMP promoter luciferase reporter cells, luminescence; calls from a first round at 10 µM; hits with a dose series show EC50 in µM; hit rate 0.62% among 87,000;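 active = over half of the reporter light lost at 10 µM or EC50 under 50 µM; inactive = the rest and hits that failed the dose series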;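 note: actives suppress MT1-MMP promoter-driven transcription so potencies describe inhibitors; HT1080 fibrosarcoma cells; overnight exposure; toxic or luciferase-blocking compounds were not removed from the actives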
Hsc70 = Hsc70 inhibitors, probe displacement, primary screen, biochemical, fluorescence polarization (AID 568) | Hsc70 fluorescence polarization, probe displacement; higher % means a stronger effect; strong numbers were not always called active | Heat shock cognate 71 kDa protein (Homo sapiens) | 83,000 tested, under 10 active | one-dose displacement, % at 20 µM; IC50 in µM for titrated hits;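 active = displacement above 50% without optical interference and an IC50 on retest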;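 note: ATPase domain with a fluorescein-tagged ATP probe; 0% = vehicle and 100% = excess ADP; read after one hour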
WNV NS2B-NS3 inh = inhibitors of WNV NS2B-NS3 protease, primary screen, biochemical, fluorogenic substrate | hit rate 0.18% among 65,000 | Genome polyprotein (West Nile virus), P06935 | fluorogenic substrate Ex360/Em465; hits give low values | z-score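 (tested at a level between 10 and 100 µM)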;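 active = z-score at -3 or under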;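 note: score is relative to mean and spread of the compound wells of a plate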
Target sequence (P06935 1371-1501 limits assumed): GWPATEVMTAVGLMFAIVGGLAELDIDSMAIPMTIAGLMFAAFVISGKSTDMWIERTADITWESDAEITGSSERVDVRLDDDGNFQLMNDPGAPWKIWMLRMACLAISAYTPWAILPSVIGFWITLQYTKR
Target sequence (P06935 1502-1679 limits assumed): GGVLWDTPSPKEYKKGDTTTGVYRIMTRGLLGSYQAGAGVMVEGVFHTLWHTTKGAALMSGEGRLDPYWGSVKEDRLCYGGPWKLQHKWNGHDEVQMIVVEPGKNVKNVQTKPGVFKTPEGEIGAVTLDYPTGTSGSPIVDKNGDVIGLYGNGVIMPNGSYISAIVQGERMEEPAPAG
An asterisk follows results filed as active; i = inactive; · = no result given. Only part of the results is shown (hit frequency here may not be typical).

SMILES	MT1-MMP reporter	Hsc70	WNV NS2B-NS3 inh
COc1ccc(S(=O)(=O)Cc2ccccc2)cc1N	i	-6.2%	-0.28
COCCNC(=O)c1c(N)sc2c1CCCC2	i	-75%	0.97
CCOC(=O)c1cnc2c(-c3ccccc3)c(C)nn2c1N	i	-5.4%	2.4
COc1ccc2nc(SCC(=O)NN)cc(C)c2c1	i	-1.5%	·
CCN1CCN(Cc2cc(=O)oc3cc(C)cc(C)c23)CC1	i	5.1%	0.37
N#Cc1cnn(Cc2ccccc2)c1N	i	-3.6%	-1.4
CSc1ccccc1C(=O)NCCc1ccc(S(=O)(=O)N2CCCCC2)cc1	i	1.6%	·
O=C(CSc1ncnc2c1cnn2-c1ccccc1Cl)N1CCN(C(=O)c2ccco2)CC1	i	-1.3%	-1.6
CCOCCCNC(=O)C1CCN(S(=O)(=O)c2ccc(C)cc2)CC1	i	-1.6%	·
CN(C)C(=O)N1CCC(C(=O)NCc2ccc(F)cc2Cl)CC1	i	4.1%	0.67
O=C(Cn1ncc2c(=O)oc3ccccc3c21)N1CCN(c2ccccn2)CC1	i	2.0%	-1.1
NCCCSC1=NCCCN1	i	-0.8%	-0.59
NCCCCCc1nnc(SCc2ccccc2Cl)o1	i	9.8%	-0.82
COCCN(C(=O)Nc1ccccc1)c1ccccc1	i	-0.7%	·
COc1ccc(CCC(=O)N2CC(C)OC(C)C2)cc1 (stereo not given)	i	1.1%	0.48
O=c1c2ccccc2ncn1-c1ccc(Cl)c(Cl)c1	i	1.1%	·
CCN(CC)S(=O)(=O)c1ccc(-c2nnc(SCC(=O)Nc3nnc(C)s3)n2CC)cc1	i	-1.3%	·
Cc1ccc(OC(C)c2nnc(N)s2)cc1Cl (stereo not given)	i	0.7%	0.56
Clc1ccc(Cc2noc(CN3CCN(c4ccccc4)CC3)n2)c(Cl)c1	i	-6.2%	0.51
Cc1ccc(C(C)n2cc(C(=O)NCc3cccnc3)nn2)cc1 (stereo not given)	i	9.5%	0.41
Cc1cc(C)nc(N(C#N)CC(=O)N2CCC(C(N)=O)CC2)n1	i	-5.6%	0.55
COc1ccccc1N1CCN(CC(=O)Nc2ccc(Cl)c(C(F)(F)F)c2)CC1	i	-1.6%	·
COc1ccccc1NC(=O)CNS(=O)(=O)c1ccccc1	i	7.1%	1.7
c1ccc2cc3[nH]c(CN4CCOCC4)nc3cc2c1	i	1.2%	2.2
O=C1c2ccccc2C(=O)C12Cc1ccccc1N1CCN(c3ccccc3)CC12 (stereo not given)	i	-0.1%	1.3
COc1ncnc2c1oc1nc(C(C)C)c3c(c12)CC(C)(C)OC3	i	-1.0%	0.85
Cc1nc2c(cnn2-c2ccc(Cl)cc2)c(=O)n1-c1ccc2c(c1)OCCO2	i	2.2%	0.49
CC(=O)Nc1nc(=S)n(-c2ccccc2)[nH]1	i	-4.3%	-0.65
COc1ccc(/C(C)=C(\C#N)C(=O)OC(C)C)cc1OC	i	4.1%	·
CS(=O)(=O)Nc1nnc(Cc2ccccc2)s1	i	-1.9%	-0.88
Cc1cccc(Nc2nc(NC(C)C)nc(Oc3ccc(=O)n(C)n3)n2)c1	i	-2.9%	0.65
O=C(Cn1cnc2c(nnn2Cc2ccccc2)c1=O)NCc1ccco1	i	-0.5%	0.82
O=C1OCC(CO)(CO)N=C1NNc1cc(Cl)ccc1Cl	i	3.4%	·
CCn1nccc1C(=O)Nc1ccc(Cl)cn1	i	-1.1%	·
CCc1nnc(NC(=O)CSc2nnc(Cc3ccccc3)o2)s1	i	1.2%	0.91
CCc1nnc(NC(=O)CCC(=O)O)s1	i	5.4%	0.25
O=C(CCC(=O)N(Cc1ccco1)C(C(=O)NC1CCCC1)c1ccncc1)Nc1cccnc1 (stereo not given)	i	-1.1%	-0.46
O=C(O)C1C2CCC(C2)C1C(=O)NCc1ccco1 (stereo not given)	i	-5.5%	0.61
CSc1ccc(-c2cc(=O)c3ccccc3o2)cc1	i	1.6%	6.5
COc1ccc(-c2cn3ccsc3n2)cc1	i	1.0%	-7.5*
CC(=O)c1cc(F)c(N2CCCC2)cc1C	i	-4.3%	0.02
C=CCSC1=C(C#N)C2(CCCCC2)C(C#N)C(=O)N1 (stereo not given)	i	-4.7%	-0.75
CC(=O)c1c(COC(=O)c2cccnc2)nc2ccccc2[n+]1[O-]	i	9.3%	-0.43
CS(=O)(=O)N(CC(=O)N1CCCCCC1)c1cccc(Br)c1	i	4.2%	0.14
CCOCCCNC(=O)C(C)NS(=O)(=O)c1ccc(C)cc1 (stereo not given)	i	2.8%	-0.47
CCOc1ccc(-n2c(SCC(=O)Nc3nccs3)nc3c(c2=O)SCC3)cc1	i	4.8%	0.88
Cc1cc(Cl)ccc1OCC(=O)OC(C)C(=O)NC(N)=O (stereo not given)	i	5.7%	0.72
Cc1cc(SCC(=O)Nc2c(C)n(C)n(-c3ccccc3)c2=O)n2c(nc3ccccc32)c1C#N	i	8.2%	-0.05
COCCn1c(=O)[nH]c2cc(C(=O)NCCCN3CCN(c4ccc(F)cc4)CC3)ccc2c1=O	i	-5.4%	-0.08
COc1ccc(-n2c(C)cc(C(=O)Cn3c(NCCO)nc4ccccc43)c2C)cc1	i	1.9%	-1.3
Cc1cccc(OCC2=N/C(=C\N(C)C)C(=O)O2)c1	i	-4.2%	-0.67
CCOC(=O)CSc1nsc(SCC(=O)OCC)c1C#N	i	-5.9%	·
Cc1sc2nc(SCC(=O)NCCOCCO)n(C)c(=O)c2c1C	i	-0.3%	-0.49
CCSc1nnc(NC(=O)NCC(F)(F)F)s1	i	4.1%	-7.8*
COC(=O)CCCC[C@H]1SC[C@H]2NC(=O)N[C@]21O	i	1.8%	0.95
O=C(CP(=O)(CO)CO)c1ccc(Cl)cc1	i	-0.4%	1
Cc1cc2cc(C(c3nnnn3C3CCCC3)N(Cc3cccnc3)Cc3ccco3)c(=O)[nH]c2cc1C (stereo not given)	i	1.3%	·
CC12COC3(C(=O)N4CCN(c5ccccn5)CC4)CC1CCC32C (stereo not given)	i	0.0%	2.5
CC1=C(C(=O)OC2CCCCC2)C(c2cccnc2)n2ncnc2N1 (stereo not given)	i	0.0%	-0.31
CN(C)S(=O)(=O)c1ccc(C(=O)Oc2ccccc2)cc1	i	0.1%	1.8

The list continues.
Fields: MT1-MMP reporter | Hsc70 | WNV NS2B-NS3 inh
CCc1c(C)sc(NC(=O)c2ccco2)c1C(=O)N1CCCCC1
 : i | -0.7% | -0.73
C=C(C)Cn1c(C2CC(=O)N(Cc3ccccc3)C2)nc2ccccc21 (stereo not given)
 : i | -1.2% | 0.26
Cc1ccc(-c2nnn(CC(=O)NCC3COCCO3)n2)o1 (stereo not given)
 : i | -2.5% | 2.3
CCc1nnc(NC(=O)CSc2nnc(CSc3nc(C)cc(C)n3)n2CC)s1
 : i | -5.0% | 0.38
O=C(c1ccccc1)c1ccc(CN2C(=O)c3ccccc3C2=O)o1
 : i | 4.6% | -0.1
CCCn1c(NCc2ccc(C)o2)nc2ccccc21
 : i | 0.2% | 1.7
CCCn1cc(S(=O)(=O)CC(=O)N2CCc3ccccc32)c2ccccc21
 : i | 119% | -0.5
CCCCCCN1C(=O)C(O)=C(C(C)=O)C1c1ccc(Cl)cc1 (stereo not given)
 : i | 11% | -0.69
Cc1cc(C)c2ccc(C)[n+]([O-])c2c1O
 : i | 4.1% | -0.12
O=c1[nH]c(SCc2ccc(F)cc2)nc2c1cnn2-c1ccc(F)cc1
 : i | 0.7% | 1.6
Cc1nc(NC(=O)c2ccccc2)sc1-c1csc(NCc2ccco2)n1
 : i | 1.2% | -0.65
CCOC(=O)C1=C(C)NC(=O)NC1c1cc(C)sc1C (stereo not given)
 : i | 0.3% | 0.16
COC(=O)C1=C(C)NC(=O)CC1c1ccccc1 (stereo not given)
 : i | 0.4% | ·
CN(C)C(=O)Cn1c(SCC(=O)N2CCCc3ccccc32)nc2ccccc21
 : i | -0.4% | -0.62
COc1cc2ccccc2cc1C(=O)Nc1ccc(N2CCN(C)CC2)cc1
 : i | 1.3% | -1.1
O=C(NCCNC(=O)C1CC2CCC1C2)C1CC2CCC1C2 (stereo not given)
 : i | -1.5% | 1.2
CS(=O)(=O)c1ccc2nc(NC(=O)C3COc4ccccc4O3)sc2c1 (stereo not given)
 : i | -5.4% | 0.59
O=C1CN(C(=O)COC(=O)Cc2ccsc2)c2ccccc2N1
 : i | 2.0% | -0.13
Cc1ccsc1-c1nc(CSCC(=O)NCc2ccc3c(c2)OCO3)c(C)o1
 : i | 0.1% | 0.61
O=C(Cc1ccccc1)Nc1c2c(nn1-c1cccc(Cl)c1)CS(=O)(=O)C2
 : i | -12% | -0.55
CN(C)c1nc(Nc2ccccc2)nc(Oc2ccc(=O)[nH]n2)n1
 : i | 9.3% | -1.2
Cc1cc(C)n(CC(=O)n2nc(C)cc2C)n1
 : i | 4.3% | 0.71
COC(=O)CCC(=O)c1oc2ccc(Br)cc2c1N
 : i | -0.7% | -0.63
Cc1cc(C(=O)CC#N)c(C)n1-c1ccc(OC(F)F)cc1
 : i | -11% | -0.63
Cc1c(N=Cc2ccco2)c(=O)n(-c2ccccc2)n1C
 : i | -2.6% | -0.55
COc1cccc(NS(=O)(=O)c2nc3nc(C)cc(C)n3n2)c1
 : i | -0.9% | -0.59
O=C(NCc1ccco1)c1cc(-c2ccccc2)c(N2CCOCC2)s1
 : i | -4.6% | 0.74
O=C(Cc1cccs1)N(Cc1cccs1)C1(C(=O)NC2CCCCC2)CCCCC1
 : i | 6.6% | ·
CN1C(=O)NC(c2ccccc2)C2=C1CN(Cc1ccco1)C2=O (stereo not given)
 : i | 0.0% | -0.55
COC(=O)c1ccc(CSc2ncnc3c2oc2ccccc23)o1
 : i | -4.0% | -0.79
O=C(O)C1(NS(=O)(=O)c2ccc(F)c(Cl)c2)CCCCC1
 : i | 1.8% | 2.2
CN1CCN(C(=O)c2ccccc2NC(=O)Cc2ccccc2)CC1
 : i | -4.7% | 0.46
CCOC(=O)C1CCCN(C(=O)Cn2cnc3c2c(=O)n(C)c(=O)n3C)C1 (stereo not given)
 : i | -1.4% | -1.3

One compound at a time, as listed above. Order of values: MT1-MMP reporter, Hsc70, WNV NS2B-NS3 inh
COC(=O)c1ccc(CSc2ncnc3c2oc2ccccc23)o1 is listed as i, -4.0%, -0.79
Cc1cc(C)n(CC(=O)n2nc(C)cc2C)n1 is listed as i, 4.3%, 0.71
COc1cccc(NS(=O)(=O)c2nc3nc(C)cc(C)n3n2)c1 is listed as i, -0.9%, -0.59

Entries from the list above containing an aryl methoxy group (11):
Fields: MT1-MMP reporter | Hsc70 | WNV NS2B-NS3 inh
COc1ccc(S(=O)(=O)Cc2ccccc2)cc1N
 : i | -6.2% | -0.28
COc1ccc2nc(SCC(=O)NN)cc(C)c2c1
 : i | -1.5% | ·
COc1ccc(CCC(=O)N2CC(C)OC(C)C2)cc1 (stereo not given)
 : i | 1.1% | 0.48
COc1ccccc1N1CCN(CC(=O)Nc2ccc(Cl)c(C(F)(F)F)c2)CC1
 : i | -1.6% | ·
COc1ccccc1NC(=O)CNS(=O)(=O)c1ccccc1
 : i | 7.1% | 1.7
COc1ncnc2c1oc1nc(C(C)C)c3c(c12)CC(C)(C)OC3
 : i | -1.0% | 0.85
COc1ccc(/C(C)=C(\C#N)C(=O)OC(C)C)cc1OC
 : i | 4.1% | ·
COc1ccc(-c2cn3ccsc3n2)cc1
 : i | 1.0% | -7.5*
COc1ccc(-n2c(C)cc(C(=O)Cn3c(NCCO)nc4ccccc43)c2C)cc1
 : i | 1.9% | -1.3
COc1cc2ccccc2cc1C(=O)Nc1ccc(N2CCN(C)CC2)cc1
 : i | 1.3% | -1.1
COc1cccc(NS(=O)(=O)c2nc3nc(C)cc(C)n3n2)c1
 : i | -0.9% | -0.59
